Rce1 inhib = yeast Ras-converting enzyme inhibition; Q03530; yeast membranes, quenched prenylated peptide cleavage fluorescence; calls only; 290,000 tested, 0.27% active; AID 2563;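 active means fall in fluorescence gain of 50% or more versus controls, with final raw signal at or below 3038400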;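 further: plate controls were neutral control wells for no effect and wells lacking membranes for full effect; tested at 10 µM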
CSC inhib = blocks cancer stem cells | cancer stem cell-like cells viability, luminescence | inhibition, % at 7.5 µM | 300,000 tested, 1.1% active | AID 2717;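 active means mean at 75% or more and at least half the replicates too; tested in HMLE shEcad cells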;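 further: 0% = median of negative and 100% = median of positive control wells; the first replicate is given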
eIF4H inh = inhibitors of RNA binding by human eIF4H; inhibition, % at 35 µM; 290,000 tested, 0.94% active; AID 2012; Q15056; eIF4H fluorescence polarization binding assay;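 active means 50% or more with normal probe brightness, or confirmed in later tests; about a fifth of its hits are not listed in these tables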;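 further: calls also rest on retests at 20 µM and on dose response follow-up; 0% = protein and probe with vehicle and 100% = probe without protein; strong numbers were not always called active; many hits fall short of the cut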
UUG fidelity = modulators of start codon recognition fidelity in yeast; S. cerevisiae UUG-firefly luciferase reporter, luminescence/redox ratio; activity score, % at 18.7 µM; 350,000 tested, 0.13% active; AID 602363;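 active means replicate mean at a twofold rise or more, about +100% in these data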;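 further: firefly luciferase made from a UUG start codon reports start codon fidelity; reporter light over untreated wells divided by growth signal over untreated wells; some hits fall short of that in this replicate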
MT1-MMP act inh = blocks activation of human MT1-MMP. P50281. HT1080 RFP-PRO-GFP cells, GFP/RFP ratio fluorescence, overnight; percent of plate control window, DMSO zero. GFP/RFP ratio change, % at 20 µM. 360,000 tested, 0.061% active. AID 651647;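 active means GFP/RFP ratio change of at least 30% with cell ATP level not reduced by more than half and red fluorescence within 50% of control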; further: strong numbers were not always called active
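Test system: HT1080 cells expressing an RFP-PRO-GFP fluorescent reporter construct / Compound dosing: single-point 20 µM compound, 1% DMSO / Schedule: cells overnight before dosing, compound overnight, 37 °C, 5% CO2 / Evaluation: GFP/RFP fluorescence ratio / Control set: DMSO and RFP-L50D-GFP cell wells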
PABP FP inh = PABP-poly(A) binding inhibition; inhibition, % at 35 µM; PABP-poly(A) RNA binding, fluorescence polarization; 290,000 tested, 1% active; AID 2014;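 active means 50% or more with normal probe brightness, or confirmed in later tests; about a fifth of its hits are not listed in these tables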;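 further: calls also rest on retests at 20 µM and on dose response follow-up; controls were probe without protein and protein plus probe with vehicle; some compounds called inactive have numbers as strong as hits; many hits fall short of the cut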
Target sequence (P11940 whole entry, looked up): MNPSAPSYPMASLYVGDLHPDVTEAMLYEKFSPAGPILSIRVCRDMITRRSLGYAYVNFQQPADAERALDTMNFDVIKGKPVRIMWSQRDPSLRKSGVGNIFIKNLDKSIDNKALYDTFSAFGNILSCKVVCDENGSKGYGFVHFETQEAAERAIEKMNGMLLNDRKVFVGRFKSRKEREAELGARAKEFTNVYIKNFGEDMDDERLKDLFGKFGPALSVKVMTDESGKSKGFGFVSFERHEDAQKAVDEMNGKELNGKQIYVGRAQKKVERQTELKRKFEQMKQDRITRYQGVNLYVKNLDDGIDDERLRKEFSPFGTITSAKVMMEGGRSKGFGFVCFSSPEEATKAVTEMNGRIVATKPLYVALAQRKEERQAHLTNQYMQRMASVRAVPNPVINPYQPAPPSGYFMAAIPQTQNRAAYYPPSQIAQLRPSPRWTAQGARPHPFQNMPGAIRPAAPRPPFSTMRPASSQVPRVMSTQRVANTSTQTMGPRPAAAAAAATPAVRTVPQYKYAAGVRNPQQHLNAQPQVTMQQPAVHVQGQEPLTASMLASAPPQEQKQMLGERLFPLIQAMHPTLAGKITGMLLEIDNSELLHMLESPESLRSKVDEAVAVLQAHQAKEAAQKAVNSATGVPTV
HIV Env fusion = blocks HIV Env-driven cell-cell fusion. 360,000 tested, 1.1% active. AID 651610. HeLa-JRFL Env/CEM21 cell fusion, luciferase. inhibition, % at 12.3 µM;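 active means mean replicate inhibition score of at least 50 and every replicate individually at or above 50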;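 further: 0% = plate neutral controls and 100% = maraviroc near 300 nM; one replicate is shown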
MT1-MMP act inh RFP = recorded beside MT1-MMP act inh, whose call it bears; RFP signal change, %; measured here: RFP expression control read;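 0 = vehicle wells; hits needed this value within 50% of zero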
Active calls of the source: *; i = inactive; / = not tested or not shown.

structure	MT1-MMP act inh	Rce1 inhib	PABP FP inh	CSC inhib	eIF4H inh	UUG fidelity	HIV Env fusion	MT1-MMP act inh RFP
CCO/C([O-])=N/c1sn[n+](C)c1C	-1	i	-3	-3	-3	-10	-5	2
COc1cc(CCC(=O)OCC(=O)Nc2ccc(F)c(F)c2F)cc(OC)c1OC	-1	i	4	-7	7	-8	-4	5
Cc1ccc([C@H]2C(C(=O)O)=CC[C@@H](c3ccc4c(c3)OCO4)N2S(=O)(=O)c2ccc(C)cc2)cc1	-2	/	/	/	/	-7	1	2
CC1CCCN(C(=O)c2cccc(S(=O)(=O)N3CCCC3)c2)C1 (stereo not given)	-2	/	/	5	/	-27	/	0
COc1cc(S(=O)(=O)NCc2ccccc2Cl)ccc1-n1cnnn1	3	i	9	-3	0	18	-3	1
NC(=O)c1ccc(NC(=O)COC(=O)c2cc3ccccc3cc2O)cc1	-4	/	/	-14	/	-13	5	-4
O=C(O)CN1C(=O)c2ccc(Oc3ccc([N+](=O)[O-])cc3)cc2C1=O	-2	i	-10	-12	-13	9	0	2
CC(NS(=O)(=O)c1ccc(Br)cc1)C(=O)NCc1ccco1 (stereo not given)	-1	i	1	-6	0	/	6	-1
Cc1ccc2c(cnn2C(=O)CCC(=O)N2CCCCC2)c1	-3	i	-4	/	-11	-8	7	4
Cc1cccc(C)c1-n1nnnc1C(c1ccnc2ccccc12)N1CCN(C/C=C/c2ccccc2)CC1 (stereo not given)	-2	/	/	/	/	15	-74	-9
O=C1C2C(c3ccccc3)CC=CC2[C@H](c2cccc([N+](=O)[O-])c2)N1Cc1ccccc1 (stereo not given in full)	-3	i	-1	6	1	-24	48	-10
CC1CCCCC12NC(=O)N(CC(=O)N1CCN(S(=O)(=O)/C=C/c3ccccc3)CC1)C2=O (stereo not given)	-2	/	/	-19	/	1	-15	2
CC1CN(S(=O)(=O)c2cccc(C(=O)NCCCn3ccnc3)c2)CC(C)O1 (stereo not given)	-1	i	-13	-12	-6	-11	-92	-8
COc1ccc(S(=O)(=O)N(CC(=O)NCc2ccncc2)Cc2ccccc2)cc1	-2	i	2	-3	-8	-13	-2	-2
COc1cccc(-c2nn(-c3ccccc3)cc2C(=O)Nc2nccs2)c1	-17	i	-11	25	-1	-1	/	-14
Cc1cc(C)cc(NC(=O)Oc2ccccc2N2CCCCC2)c1	6	i	-5	-11	-4	-11	7	4
OCCCNc1nc(-c2ccc(Br)cc2)nnc1-c1ccc(Cl)cc1	3	i	3	8	0	/	29	0
CCC(=O)N1CCN(c2ccccc2NC(=O)COc2cccc(C)c2C)CC1	-4	i	-8	-2	-9	-16	-5	-6
CCOC(=O)N1CCN(C(=O)c2cn(C)c3ccc(S(=O)(=O)N(CC)CC)cc3c2=O)CC1	6	i	8	-15	-9	-14	-14	1
O=C(NCc1cccnc1)c1ccc([N+](=O)[O-])o1	5	i	9	15	0	-4	10	-4
Cc1cccc(C(=O)NC2CCN(C(=O)Nc3ccccc3C)CC2)c1	0	i	-2	-3	1	/	-2	6
Cc1ccc(S(=O)(=O)N[C@@H](CC(C)C)C(=O)N2CCC(C(=O)N[C@@H](Cc3ccccc3)C(=O)O)CC2)cc1	-1	/	12	-10	0	-4	/	-2
CC(C)[C@H](NC(=O)[C@H]1N2C(=O)c3ccccc3C2SC1(C)C)C(=O)NCc1ccco1 (stereo not given in full)	-1	i	15	11	12	5	-5	-2
Cn1cnnc1SCC(=O)c1ccc2c(c1)OCCO2	2	i	-14	1	-4	/	-38	2
Cc1cc(C)n(CCNC(=O)[C@H]2O[C@@H](n3ccc(N)nc3=O)[C@H](O)[C@@H]2O)n1	3	/	/	/	/	-14	-15	3
Cc1ccc(-c2cccc(CN3CCN(C(C)C)C(CCO)C3)c2)o1 (stereo not given)	0	i	0	26	-6	/	-2	3
Cn1nccc1C(=O)N1CCc2ccccc21	3	i	7	11	0	-7	-4	1
COc1cc2c(cc1OC)CN(CC(=O)NC(=O)NC1CCCCC1)CC2	-2	i	-10	2	-2	15	-1	-2
O=C(Cn1nc(-c2ccccc2)ccc1=O)Nc1ccc(N2CCN(C(=O)c3cccs3)CC2)cc1	-1	i	0	-12	-7	/	5	-11
COc1ccc(-c2[nH]ncc2CN2CCC(c3ccncc3)CC2)cc1F	1	i	2	-8	12	-3	-5	-2
CN(C)c1nc(-c2ccccc2)c2cc(Cl)ccc2n1	-2	i	11	13	-7	-17	23	-2
O=C(CCNC(=O)c1ccco1)NCCc1c[nH]c2ccccc12	1	/	/	-5	/	-8	/	0
COc1ccc(-n2c(=O)c3ccccc3c3ccccc3c2=O)c(OC)c1	0	i	-16	-5	-14	/	3	2
N=c1c2ccccc2nnn1-c1cccc(C(F)(F)F)c1	0	i	7	-11	-10	-20	-6	-6
COc1ccc(C(=O)/C=C2/C(=O)Nc3ccccc32)cc1OC	-3	i	-10	25	8	-1	11	-11
Cc1nn(Cc2ccc(C(=O)NC(C)(C)C)o2)c(C)c1Br	-5	i	10	-15	-4	20	/	-24

Given with two lines to a compound: entries from further up
Below each SMILES: MT1-MMP act inh	Rce1 inhib	PABP FP inh	CSC inhib	eIF4H inh	UUG fidelity	HIV Env fusion	MT1-MMP act inh RFP
- Cc1ccc(-c2cccc(CN3CCN(C(C)C)C(CCO)C3)c2)o1 (stereo not given)
 : 0	i	0	26	-6	/	-2	3
- Cn1nccc1C(=O)N1CCc2ccccc21
 : 3	i	7	11	0	-7	-4	1
- COc1cc2c(cc1OC)CN(CC(=O)NC(=O)NC1CCCCC1)CC2
 : -2	i	-10	2	-2	15	-1	-2

Next compounds:
structure	MT1-MMP act inh	Rce1 inhib	PABP FP inh	CSC inhib	eIF4H inh	UUG fidelity	HIV Env fusion	MT1-MMP act inh RFP
C=CCc1ccc(OCCOc2cccc3cccnc23)c(OC)c1	8	i	15	5	-3	-7	-12	-7
CC(=O)Nc1ccc(NC(=O)CSc2ncc(C(=O)Nc3ccc(Cl)cc3)c(=O)n2C)cc1	1	i	/	58	/	/	/	-2
CCn1c(SCC(=O)Nc2cccc(F)c2)nnc1-c1cc2cc(Br)ccc2o1	-5	i	44	-10	-6	-8	/	-4
COC(=O)c1cccc(NS(=O)(=O)c2cccs2)c1C	1	i	-3	-17	-12	10	-53	-1
CC1=C(C(=O)N(C)C)C(c2ccccc2OC(F)F)NC(=O)N1 (stereo not given)	-5	i	18	-8	8	/	6	-1
COc1ccccc1CNC(=O)C1CCN(S(=O)(=O)c2ccc3nc4c(c(C(=O)O)c3c2)CCCC4)CC1	1	i	20	-6	-6	-22	4	4
CC(C)N(C)c1ncnc2c1ncn2[C@H]1CN(Cc2cccs2)C[C@@H](CO)O1	-3	/	/	/	/	8	-9	1
N#Cc1nc(COc2ccccc2Cl)oc1NCc1ccco1	-7	i	-2	-1	9	-15	-43	3
CC(C)(C)n1ncc2c(=O)n(CC(=O)N3CCN(c4ccccc4)CC3)cnc21	/	/	13	/	7	-4	/	/
NC(=O)c1ccsc1NC(=O)COC(=O)c1ccccc1NCc1ccco1	10	i	6	4	-2	-7	-23	6
C=CC[n+]1c(-c2ccc(C)cc2)csc1Nc1c(C)n(C)n(-c2ccccc2)c1=O	0	i	2	5	4	-4	9	-8
COc1ccc(N(CC(=O)NCc2ccc(Cl)cc2)S(=O)(=O)c2c(C)noc2C)cc1	-1	i	11	21	0	-22	2	-2
CCc1ccc(NC(=O)C(C)OC(=O)C2CCC(=O)N2)cc1 (stereo not given)	0	i	9	/	6	/	-2	1
COc1ccc(NC(=O)CN(C)C(=O)c2cccnc2Sc2ccc(C)c(C)c2)cc1	-1	i	/	-7	/	/	2	1
CCCc1cc(-c2n[nH]c(=S)n2CC(C)C)cs1	1	i	0	-23	-3	/	-5	1
Cc1c(Cc2ccc3c(c2)OCO3)sc(NC(=O)c2cccc3ccccc23)c1C(N)=O	-4	i	4	71	-12	5	/	-2
CCC(C(=O)N1CC2(C)CC1CC(C)(C)C2)N1C(=O)c2ccccc2C1=O (stereo not given)	-2	i	-9	-7	-4	20	/	-7
COc1cccc(NC(=O)CSc2nc3ccccc3c(=O)n2Cc2cccs2)c1	-12	i	-8	15	-1	-16	-27	-17
CCN(CCS(=O)(=O)c1ccc(Cl)cc1)C(=O)Nc1ccccc1	3	i	2	-4	-6	-10	18	2
C[C@H](NC(=O)c1nc[nH]c1C(=O)N[C@H](C)c1ccccc1)C(=O)OC(C)(C)C	3	i	3	-9	-5	3	-17	-4
Cc1c(C(=O)N2CCC(n3nccc3NC(=O)C3CC3)CC2)[nH]c2ccc(Cl)cc12	6	i	4	12	-4	9	6	-7
COc1ccccc1N1CCN(C(=O)c2cc(-c3ccccc3O)on2)CC1	0	i	9	4	0	-14	13	0
CCC(CO)Oc1cc(NCc2cccc(F)c2)c2ncn(C(C)C)c2c1 (stereo not given)	0	/	/	0	/	-9	-1	8
CCOC(=O)CNC(=O)CN1C(=O)CCSc2ccccc21	2	i	18	5	-8	-12	/	3
CC(=O)Oc1ccc(-c2cccc(C(=O)OCC(=O)Nc3ccccc3Oc3ccccc3)c2)cc1	-10	i	1	-8	-10	/	/	-14
CNC(=S)N1N=C(c2ccc(C)cc2)CC1c1ccc(OC)c(OC)c1 (stereo not given)	5	i	-2	0	-8	-29	-113	4
O=C(O)C(Cc1ccccc1)N=Cc1c(O)c2ccccc2oc1=O (stereo not given)	-7	i	0	/	7	/	13	1
CSc1nc(Oc2ccc(=O)n(C)n2)nc(N(C)C)n1	-1	i	0	6	-3	-1	-47	3
O=C(CCc1nc2ccccc2s1)OCc1ccccc1F	-1	i	-8	4	5	/	-6	0
CCN(CC)S(=O)(=O)c1ccc(NN=c2c(=O)c3ccccc3c2=O)cc1	-1	i	0	-6	-3	/	19	2
CS(=O)(=O)N(CC(=O)N1CCN(c2ccccc2)CC1)c1cc(C(F)(F)F)ccc1Cl	0	i	-1	-5	-2	-1	/	2
CNC(C)C#Cc1c(-c2cc(OC)c(OC)c(OC)c2)noc1C (stereo not given)	-1	i	4	0	13	21	23	9
O=C(NCc1ccc(Cl)cc1)C1CC(O)CN1S(=O)(=O)c1ccc(Cl)cc1 (stereo not given)	3	i	10	-9	-6	-9	6	1
CC(OC(=O)c1ccc([N+](=O)[O-])cc1)C(=O)NCC1CCCCC1 (stereo not given)	-1	/	/	-10	/	-16	-7	-5
COc1ccc2oc(=O)c(-c3nnc(NCc4ccco4)s3)cc2c1	-5	i	17	13	24	-19	-252	-1
Cc1cc(C)nc(Nc2nc(C(N)CCc3ccccc3)cs2)n1 (stereo not given)	2	/	/	/	/	-30	74*	10
COc1cccc(NC(=O)CSc2nnc(NC(=O)C3CCC3)s2)c1	-3	i	-1	6	-3	9	-5	-3
Cc1ccc(CC(=O)Nc2cccc(C#N)c2)cc1	-1	i	-2	6	-8	/	-183	-1
COc1ccc(-c2cn(Cc3ccc4ccccc4c3)nn2)cc1	2	i	13	-2	6	7	/	2
C=C1CCC(N(O)c2cc(C)on2)C(=C)CCC2C1CC2(C)C (stereo not given)	-6	/	/	8	/	1	-2	-3
O=C(CSc1nc(-c2ccco2)cc(C(F)(F)F)n1)N1CCSCC1	2	i	-8	-6	-8	-22	/	-3
Cc1ccccc1OCc1nc2c3cnn(C)c3ncn2n1	2	i	8	-8	-8	-3	-80	2
COc1ccc(C(=O)COC(=O)CNC(=O)c2cccs2)cc1Br	0	i	5	-4	4	-8	5	1

Not all compounds are listed; rates above refer to the full screens.
